High-throughput results as filed in PubChem BioAssay.
UUG fidelity – modulators of yeast start codon fidelity, primary screen, whole organism, S. cerevisiae, single point, plate reader. activity score, % at 18.7 µM. S. cerevisiae UUG-firefly luciferase reporter, luminescence/redox ratio. AID 602363, 2012. actives 0.13% (n = 350,000);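 active = replicate mean at a twofold rise or more, about +100% in these data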;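 note: firefly luciferase made from a UUG start codon reports start codon fidelity; reporter light over untreated wells divided by growth signal over untreated wells; some hits fall short of that in this replicate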
* = called active by the depositor. Only part of the results is shown (hit frequency here may not be typical).

SMILES	UUG fidelity
CN1C(=O)c2cc(NC(=O)c3ccc(Cl)cc3)ccc2OC[C@@H]2O[C@H](CC(=O)NCc3cccc(F)c3)CC[C@H]21	-11
CC(=O)NC[C@H]1[C@@H](c2ccc(-c3ccccc3F)cc2)[C@@H](CO)N1C(=O)C1CC1	-12
CO[C@@H]1CN(C)C(=O)c2ccc(NC(=O)c3cc(C)on3)cc2OC[C@H](C)NC[C@@H]1C	-14
C[C@H](CO)N1C[C@H](C)[C@@H](CN(C)C(=O)Nc2ccc(F)cc2)Oc2c(cccc2N(C)C)C1=O	8
CCC(=O)N(C)C[C@@H]1[C@@H](c2ccc(C3=CCCC3)cc2)[C@H](CO)N1C(=O)CC	10
C[C@H]1CN([C@@H](C)CO)C(=O)Cc2cc(NS(=O)(=O)c3ccc(F)cc3)ccc2O[C@@H]1CN(C)CC1CC1	-1
CCCNC(=O)N1C[C@@H](O)COC[C@H]2O[C@H](CC(=O)N3CCOCC3)CC[C@@H]21	-11
COc1ccccc1NC(=O)N(C)C[C@@H]1OCc2ccccc2-c2c(n(C)c3ccccc23)C(=O)N([C@@H](C)CO)C[C@@H]1C	16
COc1ccc(-c2ccc([C@H]3[C@H](CO)N4CCCCN(C(=O)c5ccc(F)cc5)C[C@@H]34)cc2)cc1	9
COc1ccc(NC(=O)N(C)C[C@H]2Oc3c(NC(=O)C4CCOCC4)cccc3C(=O)N([C@@H](C)CO)C[C@H]2C)cc1	6
CCCNC(=O)NC[C@H]1[C@@H](c2ccc(C3=CCCC3)cc2)[C@@H](CO)N1C(=O)CC	31
COc1cccc(S(=O)(=O)N2C[C@H](O)COC[C@@H]3O[C@@H](CC(=O)N4CCCCC4)CC[C@H]32)c1	13
C/C=C/c1ccc([C@H]2[C@@H](CNC(=O)C3CC3)N(C(=O)NCCC)[C@H]2CO)cc1	-6
CCCN1C[C@@H](C)[C@@H](OC)CN(C)C(=O)c2cc(NC(=O)C3CC3)ccc2OC[C@H]1C	2
COc1ccc(S(=O)(=O)N(C)C[C@H]2Oc3ccc(NC(=O)CCN4CCOCC4)cc3C(=O)N([C@@H](C)CO)C[C@@H]2C)cc1	2
O=S(=O)(c1cccc(F)c1)N1CC[C@@H]2[C@H]1c1cc(-c3cccc(F)c3)ccc1N[C@@H]2CO	10
CCC(=O)N1C[C@@H](C)[C@@H](OC)CN(C)C(=O)c2ccc(NC(=O)Nc3cccc(F)c3)cc2OC[C@H]1C	6
O=C(NCCCN1CCOCC1)[C@@H]1N[C@@H]2c3ccc(C4=CCCCC4)c(=O)n3C[C@@H]2[C@H]1CO	1
COc1ccccc1NC(=O)N(C)C[C@H]1OCc2ccccc2-c2c(n(C)c3ccccc23)C(=O)N([C@@H](C)CO)C[C@H]1C	5
CO[C@@H]1CN(C)C(=O)c2cc(NC(C)=O)ccc2OC[C@@H](C)N(Cc2ccncc2)C[C@@H]1C	-12
CN1c2ccc(C#Cc3cccnc3)cc2[C@H]2[C@H](CCN2C(=O)C2CC2)[C@@H]1CO	7
C[C@H]1CN([C@@H](C)CO)C(=O)c2cc(NC(=O)Cc3cn(C)c4ccccc34)ccc2O[C@H]1CN(C)S(=O)(=O)c1cccs1	1
O=C(C[C@H]1C[C@H]2c3cc(NC(=O)CC4CC4)ccc3O[C@H]2[C@@H](CO)O1)NCc1cccc(F)c1	-6
Cc1ccc(S(=O)(=O)N(C)C[C@@H]2Oc3ccc(NC(=O)C4CC4)cc3CC(=O)N([C@@H](C)CO)C[C@H]2C)cc1	18
CC(=O)N(C[C@H]1N[C@H](CO)[C@@H]1c1ccc(-c2ccccc2)cc1)C(C)C	23
O=C(Cc1ccccc1)N1C[C@H]2[C@@H](c3ccccc31)[C@@H](CO)N2C(=O)Nc1ccc(F)cc1	4
O=C(c1cccc(F)c1)N1CCCCN2[C@@H](CO)[C@@H](c3ccc(/C=C/c4ccccc4)cc3)[C@@H]2C1	-6
CCCNC(=O)C[C@@H]1CC[C@@H]2[C@@H](COc3ccc(NC(=O)c4cscn4)cc3C(=O)N2C)O1	3
COCCNC(=O)C[C@@H]1CC[C@H]2[C@H](COc3ccc(NC(=O)Nc4cccc(F)c4)cc3C(=O)N2C)O1	-3
CO[C@H]1CN(C)C(=O)c2ccc(NC(C)=O)cc2OC[C@@H](C)N(C(=O)C2CCCCC2)C[C@@H]1C	2
CN(C)CC(=O)N1CC[C@H]2[C@@H]1c1cc(-c3ccccc3F)ccc1N(C)[C@H]2CO	-1
O=C(c1ccc2c(c1)OCO2)N1C[C@@H]2[C@H](c3ccccc31)[C@H](CO)N2CC1CCCC1	22
OC[C@@H]1[C@H](c2ccc(C3=CCCC3)cc2)[C@H]2CN(CCC(F)(F)F)CCCCN12	20
Cc1cccc(S(=O)(=O)N2C[C@H](O)COC[C@@H]3O[C@@H](CC(=O)N4CCN(C)CC4)CC[C@H]32)c1	-10
Cc1noc(C)c1NC(=O)N(C)C[C@H]1Oc2c(NC(=O)c3cnccn3)cccc2C(=O)N([C@@H](C)CO)C[C@H]1C	12
CO[C@H]1CN(C)C(=O)c2cc(NC(=O)C3CC3)ccc2OC[C@H](C)N(Cc2ccccc2)C[C@@H]1C	-12
CCCNC(=O)Nc1ccc2c(c1)C(=O)N(C)[C@@H]1CC[C@@H](CC(=O)OC)O[C@H]1CO2	-7
COC(=O)[C@H]1[C@H](CO)[C@H]2Cn3c(ccc(C4=CCCC4)c3=O)[C@H]2N1C(=O)C1CCC1	10
CC(C)NC(=O)Nc1cccc2c1O[C@H](CN(C)C(=O)Nc1ccc3c(c1)OCO3)[C@@H](C)CN([C@@H](C)CO)C2=O	-9
O=C(Nc1ccccc1)N1CCCCN2[C@H](CO)[C@@H](c3ccc(Br)cc3)[C@@H]2C1	-6
O=C(NC1CCCC1)N1CCCCN2[C@@H](CO)[C@@H](c3ccc(/C=C/c4ccccc4)cc3)[C@@H]2C1	-3
O=C(Nc1ccccc1)N1CCCCN2[C@H](C1)[C@@H](c1ccc(C3=CCCCC3)cc1)[C@@H]2CO	15
COCC(=O)N1C[C@@H](C)[C@@H](OC)CN(C)C(=O)c2cc(NC(=O)c3ccccc3)ccc2OC[C@H]1C	5
COCC(=O)N1CC[C@@H]2[C@H](CO)Nc3ccc(-c4ccc(C#N)cc4)cc3[C@@H]21	-11
COc1ccc(CN(C)C[C@@H]2OCc3cn(nn3)CCCC(=O)N([C@H](C)CO)C[C@H]2C)cc1	-2
CO[C@H]1CN(C)C(=O)c2cc(NC(=O)Cc3ccccc3)ccc2OC[C@@H](C)N(C(=O)c2ccccc2F)C[C@H]1C	-4
C[C@H](CO)N1C[C@H](C)[C@H](CN(C)C(=O)Nc2ccc(F)cc2)Oc2ncc(C#Cc3ccc(C(F)(F)F)cc3)cc2C1=O	-1
CCC(=O)Nc1ccc2c(c1)C(=O)N(C)C[C@@H](OC)[C@H](C)CN(C(=O)Cc1ccccn1)[C@H](C)CO2	-7
C[C@@H]1CN([C@H](C)CO)C(=O)Cc2cc(NC(=O)C3CCCCC3)ccc2O[C@@H]1CN(C)C(=O)NC1CCCCC1	-3
COc1ccc(NC(=O)N2CCCCN3[C@H](C2)[C@@H](c2ccc(-c4ccccc4F)cc2)[C@@H]3CO)cc1	3

(continued)
SMILES	UUG fidelity
C[C@@H]1CN([C@@H](C)CO)C(=O)Cc2cc(NC(=O)Nc3ccccc3)ccc2O[C@@H]1CN(C)S(C)(=O)=O	-8
CO[C@H]1CN(C)C(=O)c2cc(NC(=O)Nc3ccccc3)ccc2OC[C@H](C)N(C(=O)CN(C)C)C[C@@H]1C	-7
Cc1ccc(S(=O)(=O)N2CC[C@@H]3[C@H]2c2cc(-c4cccc(C(=O)N(C)C)c4)ccc2N[C@@H]3CO)cc1	-5
COCCN(C[C@@H]1[C@@H](c2ccccc2)[C@H](CO)N1C(C)=O)C(=O)c1cccnc1	24
C[C@H](CO)N1C[C@H](C)[C@H](CN(C)Cc2cccc(C(F)(F)F)c2)Oc2ncc(C#Cc3ccccc3)cc2C1=O	-1
O=C(C[C@H]1CC[C@H]2[C@@H](COC[C@H](O)CN2Cc2ccc3c(c2)OCO3)O1)N1CCOCC1	-6
CN1c2ccc(-c3ccccc3F)cc2[C@H]2[C@H](CCN2S(=O)(=O)c2ccccc2F)[C@@H]1CO	-7
COc1ccc(CN(C)C[C@H]2Oc3ccc(NC(=O)NC4CCCCC4)cc3C(=O)N([C@@H](C)CO)C[C@@H]2C)cc1	14
CNC(=O)C[C@H]1CC[C@H]2[C@@H](COC[C@H](O)CN2C(=O)Nc2ccc(Cl)c(Cl)c2)O1	4
CO[C@@H]1CN(C)C(=O)c2cc(NC(=O)C3CCC3)ccc2OC[C@@H](C)N(CC2CCCCC2)C[C@H]1C	-7
COCC(=O)Nc1ccc2c(c1)C(=O)N(C)[C@H]1CC[C@@H](CC(=O)NCCc3ccncc3)O[C@H]1CO2	-7
CO[C@H]1CN(C)C(=O)c2cc(NC(=O)C3CC3)ccc2OC[C@H](C)N(Cc2cccnc2)C[C@@H]1C	-8
C[C@H](CO)N1C[C@H](C)[C@H](CN(C)C(=O)Nc2ccc3c(c2)OCO3)Oc2ccc(NC(=O)C3CCCCC3)cc2CC1=O	4
CCC(=O)Nc1ccc2c(c1)C(=O)N(C)[C@@H]1CC[C@H](CC(=O)O)O[C@H]1CO2	-1
C[C@H]1CN([C@@H](C)CO)C(=O)c2cccc(NC(=O)c3nc4ccccc4s3)c2O[C@H]1CN(C)C(=O)Nc1cccc2ccccc12	-10
C[C@H]1CN([C@@H](C)CO)C(=O)c2cccc(NC(=O)Nc3ccc(F)cc3)c2O[C@@H]1CN(C)Cc1ccc(C(F)(F)F)cc1	12
COc1ccc(CN(C)C[C@@H]2Oc3c(NC(=O)c4cc(C)nn4C)cccc3C(=O)N([C@@H](C)CO)C[C@H]2C)cc1	-6
C/C=C/c1ccc([C@H]2[C@@H](CO)N(Cc3ccccn3)[C@H]2CNC(C)=O)cc1	-8
C[C@@H]1CN([C@H](C)CO)C(=O)c2cc(NC(=O)CCN3CCOCC3)ccc2O[C@H]1CN(C)C(=O)Nc1ccc2c(c1)OCO2	-12
O=S(=O)(c1ccc(F)cc1)N1CC[C@@H]2[C@H](CO)Nc3ccc(-c4ccc(F)cc4)cc3[C@@H]21	-6
C[C@H](CO)N1C[C@H](C)[C@@H](CN(C)Cc2ccc(-c3ccccc3)cc2)Oc2ccc(NC(=O)Nc3cccc4ccccc34)cc2C1=O	-5
C[C@@H]1CN([C@@H](C)CO)C(=O)Cc2cc(NC(=O)Nc3ccc(F)cc3)ccc2O[C@H]1CN(C)C(=O)Nc1ccccc1	0
C[C@@H]1CN([C@@H](C)CO)C(=O)c2cccc(NC(=O)Nc3ccccc3)c2O[C@H]1CN(C)S(=O)(=O)c1ccc(F)cc1	18
C[C@H]1CN([C@@H](C)CO)C(=O)c2cc(NC(=O)Cc3cn(C)c4ccccc34)ccc2O[C@@H]1CN(C)C	-8
C[C@@H](O)C#Cc1ccc([C@H]2[C@@H](CO)N3CCCCN(C(=O)Nc4ccccc4)C[C@@H]23)cc1	2
CCCNC(=O)C[C@H]1CC[C@@H]2[C@H](COC[C@H](O)CN2C(=O)C2CCOCC2)O1	-9
COc1cccc(S(=O)(=O)N2CC[C@@H]3[C@H]2c2cc(Br)ccc2N[C@@H]3CO)c1	-5
O=C(c1cccnc1)N1CC[C@@H]2[C@H](CO)Nc3ccc(-c4cccc(F)c4)cc3[C@@H]21	-5
O=C(C[C@@H]1CC[C@H]2[C@@H](COC[C@@H](O)CN2CC2CCCCC2)O1)NCc1ccc(Cl)cc1	-2
COc1cccc(C(=O)Nc2ccc3c(c2)OC[C@H](C)N(C(=O)C2CCCC2)C[C@@H](C)[C@H](OC)CN(C)C3=O)c1	-8
CO[C@@H]1CN(C)C(=O)c2ccc(NC(=O)c3ccccc3)cc2OC[C@@H](C)NC[C@@H]1C	17
CO[C@@H]1CN(C)C(=O)c2ccc(NC(=O)c3ccccn3)cc2OC[C@@H](C)N(C(=O)C2CC2)C[C@H]1C	3
C[C@@H]1CN([C@@H](C)CO)C(=O)c2cc(NC(=O)c3ccncc3)ccc2O[C@H]1CN(C)S(=O)(=O)c1ccc(Cl)cc1	1
CO[C@@H]1CN(C)C(=O)c2ccc(NC(=O)C3CCOCC3)cc2OC[C@@H](C)N(C(=O)C2CCOCC2)C[C@H]1C	1
COCC#Cc1ccc([C@@H]2[C@@H](CO)N3CCCCN(C(=O)NC4CCCC4)C[C@H]23)cc1	-4
COc1ccc(S(=O)(=O)N(C)C[C@H]2Oc3ccc(NC(=O)CCCN(C)C)cc3C(=O)N([C@@H](C)CO)C[C@H]2C)cc1	3
